Source: PubChem (National Center for Advancing Translational Sciences (NCATS))
TR SRC2 fluor cs: Total Fluorescence Counterscreen for Inhibitors of the Interaction of Thyroid Hormone Receptor and Steroid Receptor Coregulator 2; Potency, µM (doses to about 106 µM), for inactives: top-dose fluorescence change, negative = quenching; TRb/SRC2 Texas Red total fluorescence interference; hit rate 0.29% among 280,000; active means well fitted curve in either direction with a large enough effect; inconclusive means small, poorly fitted or top-dose-only effect; further: potency means the concentration at half of the fitted maximal effect; on the % scale 0 is the no-effect control and ±100 the full control effect
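Flags fluorescent or light-absorbing compounds by total fluorescence, S + 2P, at 555 nm excitation and 632 nm emission. Mixture: 20 nM Texas Red SRC2 peptide, 0.6 uM human TRb LBD, 1 uM T3, 5% DMSO; compound exposure 5 h at ambient temperature.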
Tau fluor cs: Counterscreen qHTS for Inhibitors of Tau Fibril Formation, Fluorescence Polarization; tau K18 P301L (four-repeat tau fragment) Alexa594 fluorescence, heparin fibrillization; Potency, µM (doses to about 57.7 µM), without a hit: at the top dose activity change, negative = decrease; hit rate 0.93% among 280,000; AID 1463, 2008; further: potency means the concentration at half of the fitted maximal effect; on the % scale 0 is the no-effect control and ±100 the full control effect; nearly all actives have a fitted effect of over 55% in size
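Human K18 P301L tau (15 uM unlabeled plus 0.24 uM Alexa 594-labeled, final) in 100 mM sodium acetate pH 7 was mixed with compound and 20 uM heparin and incubated 6 hr at 37 C.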
TRb SRC2 PPI: qHTS for Inhibitors of the Interaction of Thyroid Hormone Receptor and Steroid Receptor Coregulator 2. TRbeta-SRC2 peptide binding, fluorescence polarization; receptor liganded with 1 µM T3. Potency, µM (doses to about 106 µM), for the others: at the top dose activity change, negative = inhibition, usual class: inhibitors. hit rate 0.065% among 280,000;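 further: potency means the concentration at half of the fitted maximal effect; plate controls were bound peptide for no effect and peptide without receptor for full effect; nearly all actives have a fitted effect of over 50% in size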
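Quantitative HTS by FP: 0.6 uM TRb LBD, 20 nM labeled SRC2 20-mer, 1 uM T3, 5% DMSO; 5 hr ambient incubation; % activity per concentration and potencies from concentration series.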
Tau fibril FP: qHTS for Inhibitors of Tau Fibril Formation, Fluorescence Polarization | Microtubule-associated protein tau (Homo sapiens), P10636 | Potency, µM (doses to about 57.7 µM), inactives show at the highest dose activity, negative = inhibition, hits mostly inhibitors | K18 P301L tau heparin fibrillization, Alexa594 FP, 6 h | hit rate 0.39% among 280,000; further: potency means the concentration at half of the fitted maximal effect; on the % scale 0 is the no-effect control and ±100 the full control effect; nearly all actives have a fitted effect of over 55% in size
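Human tau K18 […] P301L fragment, 15 uM unlabeled plus 0.24 uM Alexa 594-labeled tau (final), with compound and 20 uM heparin in 100 mM sodium acetate pH 7; 6 hr at 37 C, then Alexa 594 FP read.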
GLA spleen mod: qHTS Assay for Inhibitors and Activators of Human alpha-Galactosidase From Spleen Homogenate; Potency, µM (doses to about 80 µM), for inactives: top-dose activity change, negative = inhibition, usual class: inhibitors; AID 2107, 2009; hit rate 0.008% among 240,000; human spleen homogenate, 4MU-alpha-Gal fluorescence, 40 min;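 further: potency means the concentration at half of the fitted maximal effect; 0% = enzyme with vehicle and -100% = no enzyme basal signal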
Target sequence (P06280 32-429 limits assumed): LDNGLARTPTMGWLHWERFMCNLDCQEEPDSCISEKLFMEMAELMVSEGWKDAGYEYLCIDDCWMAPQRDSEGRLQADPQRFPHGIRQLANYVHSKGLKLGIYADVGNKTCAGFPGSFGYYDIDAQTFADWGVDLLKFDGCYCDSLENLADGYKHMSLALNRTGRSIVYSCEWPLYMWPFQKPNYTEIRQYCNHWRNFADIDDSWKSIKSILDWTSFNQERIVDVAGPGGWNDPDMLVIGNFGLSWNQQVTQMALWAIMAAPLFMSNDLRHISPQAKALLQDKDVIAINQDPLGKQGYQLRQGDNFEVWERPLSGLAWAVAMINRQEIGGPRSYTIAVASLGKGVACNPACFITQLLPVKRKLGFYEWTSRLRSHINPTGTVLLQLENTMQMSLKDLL
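Human spleen homogenate (1 ug) as enzyme source, 4-methylumbelliferyl-alpha-D-galactopyranoside 1 mM final, citrate/phosphate pH 5.0 with 0.01% Tween-20. Compounds 40 min at 37C, NaOH/glycine stop; fluorescence Ex 365/Em 440, Hill-fit AC50.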
CBFb-RUNX1 inh: qHTS Assay for Compounds Blocking the Interaction Between CBF-beta and RUNX1 for the Treatment of Acute Myeloid Leukemia | AlphaScreen CBFb-His/RUNX1-biotin binding, biochemical | Potency, µM (titrated, usually from 59.8 µM), for the others: at the top dose activity, negative = inhibition, hits mostly inhibitors | 230,000 tested, under 10 active | Runt-related transcription factor 1 (Homo sapiens) + Core-binding factor subunit beta …; further: % of control where 0% means no effect
Target sequence (Q01196 whole entry, looked up): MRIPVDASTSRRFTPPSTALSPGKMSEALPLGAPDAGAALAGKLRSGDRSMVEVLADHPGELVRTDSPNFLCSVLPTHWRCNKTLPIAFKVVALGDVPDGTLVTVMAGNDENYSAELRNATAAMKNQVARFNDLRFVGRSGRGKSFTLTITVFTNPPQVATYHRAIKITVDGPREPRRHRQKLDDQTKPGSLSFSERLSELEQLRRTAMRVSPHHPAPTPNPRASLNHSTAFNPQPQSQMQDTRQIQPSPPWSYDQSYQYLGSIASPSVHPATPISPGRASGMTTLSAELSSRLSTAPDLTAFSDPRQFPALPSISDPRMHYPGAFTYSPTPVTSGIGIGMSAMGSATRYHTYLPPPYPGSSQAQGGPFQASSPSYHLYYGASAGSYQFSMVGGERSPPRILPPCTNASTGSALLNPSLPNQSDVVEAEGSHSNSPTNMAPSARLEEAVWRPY
Target sequence (Q13951 whole entry, looked up): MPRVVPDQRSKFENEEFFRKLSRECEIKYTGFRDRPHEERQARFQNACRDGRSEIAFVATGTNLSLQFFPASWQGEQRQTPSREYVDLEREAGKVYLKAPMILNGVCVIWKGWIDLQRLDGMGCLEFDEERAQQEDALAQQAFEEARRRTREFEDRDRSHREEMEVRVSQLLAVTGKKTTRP
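CBFb-His/RUNX1-biotin, 30 nM each, preincubated 20 min RT; compound 15 min RT; Ni + streptavidin beads 50 ng each, 90 min RT; AlphaScreen read.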
Epigenetic reg: Quantitative High-Throughput Screen for Regulators of Epigenetic Control | murine LDR cells, GFP reporter derepression, 30 h | Potency, µM (series often up to 53.9 µM), without a hit: at the highest dose GFP activation, actives largely listed as activators | hit rate 0.2% among 280,000; further: potency means the concentration at half of the fitted maximal effect; % of control where 0% means no effect; nearly all actives have a fitted effect of over 60% in size
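Reporter derepression read as number of fluorescent GFP-positive objects, 20-120 um in size, counted by laser-scanning cytometer. Mouse LDR line with an epigenetically silenced CMV-GFP locus; compound incubation 30 h, 37 C.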
Starred values were filed as active, the others as inactive; ? = inconclusive; [ ] = dose if it differs, or a comment. Unless noted, the call rests on the fitted dose curve; in most records, active means well fitted curve in the direction sought with a large enough effect; inconclusive means small, poorly fitted or top-dose-only effect, or another doubt; inactive means no such curve, though single readings can be large; an effect the other way counts as inactive or inconclusive. Not all compounds are listed, so the mix of outcomes need not match the whole.

SMILES	TR SRC2 fluor cs	Tau fluor cs	TRb SRC2 PPI	Tau fibril FP	GLA spleen mod	CBFb-RUNX1 inh	Epigenetic reg
O=C(COc1ccccc1)NNC(=S)NC(=O)c1ccc(Cl)cc1Cl	2.1%	-13.2%	-2.8%	-2.5%	-3.2%	-12.6%	0.0%
O=C(/C=C/c1cn(-c2ccccc2)nc1-c1cccs1)NCCN1CCOCC1	1.7%	?	-2.4%	?	-6.2%	4.0%	0.0%
CSc1ccc(S(=O)(=O)Nc2ccc3c(c2)OCCO3)cc1	-2.3%	-24.0%	-2.5%	7.1%	-1.0%	-13.0%	-1.0%
O=c1c(Cl)nc2cc(Cl)ccc2n1CCNc1ncc(C(F)(F)F)cc1Cl	-1.4%	7.9%	4.4%	0.5%	-2.2%	-0.8%	-1.1%
O=C(Nc1cccc(-c2nc3ccccc3[nH]2)c1)c1ccco1	-6.3%	-14.5%	1.0%	?	1.6%	5.0%	2.2%
CCOC(=O)c1c(-c2ccccc2)nnn1-c1nc(OCC)nc(N2CCCCC2)n1	-7.7%	-12.3%	-1.9%	-3.6%	2.1%	15.8%	-1.1%
Cc1ccc2nc(SCC(=O)N3c4ccccc4CC3C)c(C)cc2c1 (stereo not given)	-3.9%	-4.2%	-2.2%	3.4%	-2.0%	2.6%	0.0%
COc1ccc(S(=O)(=O)Nc2ccc(C)cc2)cc1N(C)S(=O)(=O)c1ccc(Cl)cc1	0.3%	?	10.7%	-10.3%	6.5%	-24.5%	-3.0%
CCn1c(Cc2ccccc2)nnc1SCC(=O)Nc1ccccc1	-0.1%	0.5%	-2.6%	-4.5%	-12.7%	-1.2%	6.3%
COC(=O)CSc1nc(C(C)C)nc2ccccc12	-2.1%	-2.9%	-1.6%	-8.9%	-6.7%	3.5%	0.7%
O=c1[nH]c2ccc(Cl)cc2c(-c2ccccc2)c1N1CCOCC1	0.6%	-1.4%	-15.8%	-11.2%	2.8%	10.3%	0.0%
Cc1cccc(NC(=O)c2sc3nc(-c4ccc(F)cc4)cn3c2C)n1	0.9%	-22.6%	-4.9%	-4.4%	4.9%	-1.9%	6.7%
Cc1ccnc(N2CCN(C(=O)CSc3nc4ccccc4nc3N3CCCCC3)CC2)c1	-3.9%	-4.0%	-7.7%	-3.2%	5.6%	28.1%	0.0%
CC(C)(C)n1nnnc1C(c1ccc2ncccc2c1)N1CCSCC1 (stereo not given)	-5.1%	-18.2%	2.3%	-10.0%	-7.6%	1.0%	-1.1%
O=c1cc(O)c2sc3nc(-c4ccccc4)cc(C(F)(F)F)c3c2[nH]1	?	-0.4%	-15.8%[53 µM]	-0.3%	13.5%	12.3%	2.1%
COc1nccnc1NS(=O)(=O)c1ccc(NC(=S)NC(=O)/C=C/c2ccccc2)cc1	-2.7%	-10.9%	0.0%	-3.9%	-5.0%	0.5%	-1.6%
Cc1ccc2c3c(c(SCC(=O)Nc4nonc4C)nc2c1)CCCC3	-1.6%	-7.8%	-10.2%	-1.6%	-6.6%	-1.6%	2.9%
O=C(N[C@@H](Cc1ccccc1)C(=O)OCc1ccccc1)c1nc[nH]c1C(=O)NCc1ccccc1	0.0%	?	3.0%	?	3.3%	-6.6%	0.0%
Cc1cc(-c2[nH]nc3c2C(c2cccc(O)c2)C(C#N)=C(N)O3)c(C)s1 (stereo not given)	-1.2%	-26.5%	-5.8%	2.3%	-5.3%	-4.3%	-3.0%
Cc1cccc(-c2cc(C(=O)Nc3ccc4c(c3)OCCO4)c3ccccc3n2)c1	2.5%	?	-13.5%	-11.4%	7.4%	0.8%	0.0%
Fc1cccc(-c2cc3nc4c(c(N5CCC6(CC5)OCCO6)n3n2)CCCC4)c1	0.4%	-7.2%	5.4%	1.6%	2.7%	3.0%	0.0%
Cc1cc2ccccc2nc1SCC(=O)N1c2ccccc2CC1C (stereo not given)	1.0%	-13.8%	-6.3%	1.4%	4.1%	-0.1%	-0.7%
Oc1ccccc1C(=S)N1CCCCCC1	3.5%	-19.6%	-1.3%	?	3.2%	2.1%	0.2%
CN(C)c1oc(-c2ccccc2)nc1C#N	-0.5%	-0.2%	-1.9%	-6.7%	14.1%	-1.3%	1.4%
COc1ccc(-n2c(COc3cccc4ccccc34)nnc2SCC(=O)NCc2ccco2)cc1	0.6%	-16.5%	-1.2%	8.3%	4.3%	-22.6%	8.7%

Arranged by number of heavy atoms (smallest number first): some entries from above
SMILES	TR SRC2 fluor cs	Tau fluor cs	TRb SRC2 PPI	Tau fibril FP	GLA spleen mod	CBFb-RUNX1 inh	Epigenetic reg
CCn1c(Cc2ccccc2)nnc1SCC(=O)Nc1ccccc1	-0.1%	0.5%	-2.6%	-4.5%	-12.7%	-1.2%	6.3%
Cc1cccc(NC(=O)c2sc3nc(-c4ccc(F)cc4)cn3c2C)n1	0.9%	-22.6%	-4.9%	-4.4%	4.9%	-1.9%	6.7%
CCOC(=O)c1c(-c2ccccc2)nnn1-c1nc(OCC)nc(N2CCCCC2)n1	-7.7%	-12.3%	-1.9%	-3.6%	2.1%	15.8%	-1.1%

Later entries:
SMILES	TR SRC2 fluor cs	Tau fluor cs	TRb SRC2 PPI	Tau fibril FP	GLA spleen mod	CBFb-RUNX1 inh	Epigenetic reg
O=C1C2CCCN2C(c2cccs2)N1c1ccc(Cl)cc1 (stereo not given)	-2.4%	4.8%	2.5%	-7.1%	-5.8%	1.7%	-1.0%
COc1ccccc1N(C(=O)c1snc(C(N)=O)c1N)C(C(=O)NCCC(C)C)c1ccco1 (stereo not given)	-2.0%	-5.4%	3.1%	-1.3%	5.7%	0.9%	-1.0%
O=C(CSc1nnc(COc2ccc(Br)cc2)o1)N1CCOCC1	2.9%	-8.5%[2.34 µM]	-1.1%	-12.0%[2.34 µM]	4.7%	7.0%	-1.1%
COc1cccc(C2NC(=O)NC(C)=C2C(=O)Nc2ccc(C)cc2)c1 (stereo not given)	-3.4%	18.8%	-7.3%	5.6%	-2.8%	12.1%	-1.8%
COC(=O)Oc1ccc(/C=C/C(=O)OC(C)C)cc1OC(=O)OC	-3.2%	-18.8%	3.9%	-6.7%	?	3.1%	0.0%
Cn1c(CCN2CCCCC2)nc2cc([N+](=O)[O-])ccc21	-1.4%	-4.9%	6.0%	1.3%	5.9%	-3.4%	-1.1%
COc1ccc(C2NC(=O)NC(C)=C2C(=O)Nc2cccc(C)c2C)cc1 (stereo not given)	0.8%	3.5%	10.3%	3.0%	2.9%	7.6%	0.0%
Cc1ccsc1C(=O)OCC(=O)Nc1cccc(S(=O)(=O)NC2=NCCCCC2)c1	-3.9%	-23.2%	6.7%	-7.7%	2.7%	6.0%	1.1%
O=C(Nc1ccc(Cl)cc1)c1cc2nc(-c3ccco3)cc(C(F)(F)F)n2n1	0.2%	-17.9%	-1.6%	-3.1%	1.5%	2.8%	?
N#CC(c1ccccc1)(c1ncc(C(F)(F)F)cc1Cl)N1CCOCC1 (stereo not given)	-2.7%	2.9%	4.5%	0.7%	5.3%	5.4%	-2.1%
O=C(Nc1sc2c(c1C(=O)NCC1CCCO1)CCCC2)c1cccs1 (stereo not given)	6.2%	-23.8%	-0.7%	6.8%	0.1%	?	-0.2%
COc1ccc(N2C(N)=NC(N)=NC23CCCC3)cc1	-2.0%	-10.6%	-0.1%	-2.2%	8.3%	7.1%	3.1%
O=C(c1ccc(O)cc1)c1ccc(C(=O)O)c(C(=O)O)c1	-1.2%	4.8%	-0.6%	0.3%	2.8%	-0.6%	0.0%
O=C1CCCC2=C1C1c3ccccc3C(=O)N1c1ccc(C(=O)c3ccccc3)cc1N2 (stereo not given)	-8.8%	2.6%	-4.0%	-1.3%	-7.3%	-1.6%	1.0%
Cc1ccc(-c2nnc(N3CCCCC3)c3ccccc23)cc1S(=O)(=O)N(C)C	-1.2%	-4.0%	-3.2%	-5.6%	-2.1%	5.7%	-2.2%
CN(C)C(=O)NC(NC(=S)Nc1ccccc1)C(Cl)(Cl)Cl (stereo not given)	-1.0%	-12.3%	-2.1%	?	23.3%	0.7%	0.2%
CC(C)Sc1nc(SCC(=O)NCc2ccco2)c2c3c(sc2n1)COC(C)(C)C3	-2.4%	2.4%	-0.5%	0.7%	10.3%	-0.7%	-4.3%
COc1cccc(N(C(=O)c2cnccn2)C(C(=O)NC2CCCCC2)c2ccc(Cl)cc2)c1 (stereo not given)	3.4%	-9.4%	-6.8%	5.6%	4.6%	11.2%	0.0%
O=C(Nc1ccn(Cc2c(F)c(F)c(F)c(F)c2F)n1)c1ccc(COc2ccccc2Cl)cc1	0.1%	-19.4%	0.3%	-10.8%	-6.4%	6.3%	1.5%
CCCCN(CC)C(=O)CSc1nc2c(sc(=S)n2-c2ccc(OCC)cc2)c(=O)[nH]1	-1.7%	-8.2%	8.4%	-6.7%	-0.2%	-1.3%	2.3%
O=C(COc1ccccc1)Nc1ccccc1N1CCN(c2ccccc2)CC1	2.1%	-11.3%	-5.4%	-4.4%	0.6%	4.4%	0.0%
CC(C)C(C)NC(=O)CSc1nc2scc(-c3ccco3)c2c(=O)n1-c1ccccc1 (stereo not given)	6.9%	-29.4%	11.5%	4.47µM*	-3.8%	17.0%	1.0%
O=S(=O)(Nc1ccc2c(c1)OCCO2)c1ccc(F)cc1	2.4%	-11.0%	-2.9%	-6.7%	2.2%	-2.5%	0.8%
CNC(=O)c1[nH]cnc1C(=O)N[C@@H](CC(C)C)C(=O)OCc1ccccc1	-1.8%	-11.6%	11.0%	-0.4%	0.6%	4.9%	0.0%
N=c1c2c(ncn1CCCO)Oc1ccc3ccccc3c1C2c1ccccc1 (stereo not given)	-0.8%	-9.9%	4.8%	-1.4%	5.3%	1.0%	-1.2%
Cn1c(C(=O)O)cc2c(=O)n3ccccc3nc21	-2.8%	1.5%	-10.5%	1.4%	?	9.4%	-3.2%

Two entries from above, as comma-separated lines:
compound,TR SRC2 fluor cs,Tau fluor cs,TRb SRC2 PPI,Tau fibril FP,GLA spleen mod,CBFb-RUNX1 inh,Epigenetic reg
O=C(c1ccc(O)cc1)c1ccc(C(=O)O)c(C(=O)O)c1,-1.2%,4.8%,-0.6%,0.3%,2.8%,-0.6%,0.0%
CNC(=O)c1[nH]cnc1C(=O)N[C@@H](CC(C)C)C(=O)OCc1ccccc1,-1.8%,-11.6%,11.0%,-0.4%,0.6%,4.9%,0.0%
